RECQ1 inh – qHTS Assay for Inhibitors of RecQ-Like Dna Helicase 1 (RECQ1); ATP-dependent DNA helicase Q1 (Homo sapiens), P46063; RECQ1 DNA unwinding, red fluorescence kinetic read; Potency, µM (highest dose often 57.3 µM), for inactives: at the top dose activity, negative = inhibition, most hits filed as inhibitors; 240,000 tested, 0.54% active; AID 2549, 2010;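 also: plate controls were vehicle for no effect and no enzyme for full effect; nearly all actives have a fitted effect of over 30% in size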
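RECQ1T1 50 nM; forked duplex (20 bp + 30-nt ss tails) 200 nM, ATP 2 mM final; pH 8.0, 2 mM MgCl2, 2.5 ug/ml poly(dI-dC); 15 min compound preincubation; discontinuous kinetic read over 2 h at RT.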
ALDH1A1 block – qHTS Assay for Inhibitors of Aldehyde Dehydrogenase 1 (ALDH1A1) | Purified ALDH1A1, NADH fluorescence, propionaldehyde substrate | Potency, µM (doses to about 75.3 µM), without a hit: at the highest dose activity, negative = inhibition, actives largely listed as inhibitors | 220,000 tested, 7.3% active | AID 1030, 2008; active = well fitted inhibition curve with a large enough effect, not every such curve was filed as active; inconclusive = small, poorly fitted or top-dose-only effect, or another doubt; inactive = no such curve, though single readings can be large or run the other way;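 also: plate controls were no enzyme wells and a reference inhibitor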
Target sequence (P00352 whole entry, looked up): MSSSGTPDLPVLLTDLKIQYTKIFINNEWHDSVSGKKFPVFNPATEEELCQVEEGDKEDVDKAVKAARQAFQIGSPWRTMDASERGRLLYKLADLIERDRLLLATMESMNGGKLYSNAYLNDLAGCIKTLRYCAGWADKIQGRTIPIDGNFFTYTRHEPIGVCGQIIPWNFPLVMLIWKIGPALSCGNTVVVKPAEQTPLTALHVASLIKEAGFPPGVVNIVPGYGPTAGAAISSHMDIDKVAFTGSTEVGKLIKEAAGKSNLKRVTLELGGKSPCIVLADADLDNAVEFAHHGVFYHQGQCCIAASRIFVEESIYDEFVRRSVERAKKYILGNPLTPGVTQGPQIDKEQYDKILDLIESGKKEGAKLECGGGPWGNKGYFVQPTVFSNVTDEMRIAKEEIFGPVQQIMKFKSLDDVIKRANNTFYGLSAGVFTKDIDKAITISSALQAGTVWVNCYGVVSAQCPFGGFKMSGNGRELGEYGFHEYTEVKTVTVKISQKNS
Lamin A splicing – qHTS Assay for Modulators of Lamin A Splicing. 200,000 tested, 0.01% active. Potency, µM (highest dose often 46.1 µM), for inactives: at the highest dose ratio change, negative = inhibition, most hits filed as inhibitors. HeLa LMNA splicing GFP/RFP minigene ratio, 48 h. AID 1487, 2009; active = well fitted inhibition curve with a large enough effect in the signal ratio, with a control signal flat, not every such curve was filed as active; inconclusive = small, poorly fitted or top-dose-only effect, or effect the other way, or a change in a side signal; the % refers to the signal ratio
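S3 HeLa stable clones carrying a lamin A-EGFP splicing minigene plus DsRed2 were seeded at 600 cells/well in Opti-MEM with 2% FBS, pin-dosed and incubated 48 h at 37°C. Acumen cytometry (488 nm) gave the GFP/RFP total-intensity ratio.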
Luc counter – Counterscreen for Luciferase (Kinase-Glo TM) Inhibition; Potency, µM (top dose mostly 38.3 µM), for inactives: at the highest dose activity change, negative = inhibition, usual class: inhibitors; Kinase-Glo luciferase, ATP luminescence, 8 min; AID 1379, 2008; 200,000 tested, 0.28% active; Luciferin 4-monooxygenase (Photuris pensylvanica), Q27757; also: nearly all actives have a fitted effect of over 60% in size
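Kinase-Glo luciferase light output from ATP and luciferin was measured with 10 uM ATP, within the enzyme's linear range. Buffer: 50 mM imidazole pH 7.2, 50 mM KCl, 7 mM MgCl2, 0.01% Tween 20, 0.05% BSA; luminescence read after 8 min at ambient temperature.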
* = called active by the depositor; & = joins results of further samples; ! = repeats disagree; [ ] = remark or other dose. Unless noted, calls follow the shape of the dose curve; as a rule, active = well fitted inhibition curve with a large enough effect; inconclusive = small, poorly fitted or top-dose-only effect; inactive = flat fitted curve, though single readings scatter. Unless noted, % is scaled to controls: 0 for no effect and ±100 for the full control effect; potency is read from the fitted curve at half-maximal effect.

Results for O=C(O)CCCc1ccc(N(CCCl)CCCl)cc1 ?
RECQ1 inh: -4.1%; ALDH1A1 block: 5.0%; Lamin A splicing: inconclusive; Luc counter: -1.0%

Results for CC1O[C@@H](O[C@@H]2C(O)C[C@H](O[C@@H]3C(O)C[C@@H](OC4CC[C@@]5(C)C6CC[C@]7(C)C(C8=CC(=O)OC8)CC[C@@]7(O)C6CC[C@@H]5C4)OC3C)OC2C)CC(O)[C@H]1O (some centres undefined) ?
RECQ1 inh: inactive; ALDH1A1 block: -7.5%; Luc counter: -1.5%

Results for CC(=O)N1CCN(c2ccc(OC[C@@H]3CO[C@@](Cn4ccnc4)(c4ccc(Cl)cc4Cl)O3)cc2)CC1 ?
RECQ1 inh: 0.3%[25.9 µM]; ALDH1A1 block: -8.1%[20.9 µM]; Lamin A splicing: inconclusive; Luc counter: 1.6%[17.1 µM]

How did S=C1NCCN1 do in these assays?
RECQ1 inh: -7.5%&-6.8%; ALDH1A1 block: 6.2%&6.4%; Lamin A splicing: 1.4%; Luc counter: 0.5%

What do the screens show for `NC(N)=NS(=O)(=O)c1ccc(N)cc1`?
RECQ1 inh: -14.7%; ALDH1A1 block: 5.5%; Lamin A splicing: inconclusive; Luc counter: -2.9%

How did O=C(O)/C=C/C(=O)O do in these assays?
RECQ1 inh: -7.4%; ALDH1A1 block: -1.6%

How did CN1C[C@H](CNC(=O)OCc2ccccc2)C[C@H]2c3cccc4c3c(cn4C)C[C@@H]21 do in these assays?
RECQ1 inh: -9.9%; ALDH1A1 block: -6.9%; Lamin A splicing: -22.5%; Luc counter: -0.5%

What do the screens show for `C[C@@H]1O[C@H](O[C@@H]2C[C@@H](O)[C@]3(CO)[C@H]4[C@H](O)C[C@]5(C)[C@@H](C6=CC(=O)OC6)CC[C@@]5(O)[C@@H]4CC[C@]3(O)C2)[C@@H](O)[C@H](O)[C@H]1O`?
RECQ1 inh: -2.4%; ALDH1A1 block: -5.5%; Luc counter: -2.4%

Results for BrCCc1ccccc1 ?
RECQ1 inh: -19.4%; ALDH1A1 block: -7.6%

Results for CNC(=O)Oc1cccc2ccccc12 ?
RECQ1 inh: -6.2%&-4.0%; ALDH1A1 block: inconclusive; Lamin A splicing: inconclusive

How did CC1CC(C)C(=O)[C@H](C(O)CC2CC(=O)NC(=O)C2)C1 (some centres undefined) do in these assays?
RECQ1 inh: 9.0%; ALDH1A1 block: 3.6%; Luc counter: -3.2%

Results for Cc1ccc(CNC2=NCCS2)cc1 ?
RECQ1 inh: inactive; ALDH1A1 block: 1.2%

What do the screens show for `CC[C@H]1CN2CCc3cc(OC)c(OC)cc3[C@H]2C[C@@H]1C[C@@H]1NCCc2cc(OC)c(OC)cc21`?
RECQ1 inh: 14.5%; ALDH1A1 block: 5.7%; Lamin A splicing: inconclusive; Luc counter: 3.0%[39.9 µM]

Results for CC[C@@H](C(N)=O)N1CCCC1=O ?
RECQ1 inh: inactive

Results for C[C@@H]1O[C@@H](OC2CC(O)C3(CO)C4C(CCC3(O)C2)C2(O)CCC(C3=CC(=O)OC3)C2(C)C[C@H]4O)[C@H](O)[C@H](O)[C@H]1O (some centres undefined) ?
RECQ1 inh: inactive; ALDH1A1 block: 14.2%; Luc counter: 1.6%[39.9 µM]

Arranged by count of non-hydrogen atoms (highest first): some entries from above
Results for C[C@@H]1O[C@@H](OC2CC(O)C3(CO)C4C(CCC3(O)C2)C2(O)CCC(C3=CC(=O)OC3)C2(C)C[C@H]4O)[C@H](O)[C@H](O)[C@H]1O (some centres undefined) ?
RECQ1 inh: inactive; ALDH1A1 block: 14.2%; Luc counter: 1.6%[39.9 µM]

Results for O=C(O)CCCc1ccc(N(CCCl)CCCl)cc1 ?
RECQ1 inh: -4.1%; ALDH1A1 block: 5.0%; Lamin A splicing: inconclusive; Luc counter: -1.0%

Results for CNC(=O)Oc1cccc2ccccc12 ?
RECQ1 inh: -6.2%&-4.0%; ALDH1A1 block: inconclusive; Lamin A splicing: inconclusive

How did S=C1NCCN1 do in these assays?
RECQ1 inh: -7.5%&-6.8%; ALDH1A1 block: 6.2%&6.4%; Lamin A splicing: 1.4%; Luc counter: 0.5%

(continued)
How did CCC(=O)Nc1ccc(Cl)c(Cl)c1 do in these assays?
RECQ1 inh: inactive; ALDH1A1 block: -5.9%; Lamin A splicing: 2.4%; Luc counter: -2.5%

Results for O=c1[nH]oc2c1CCNC2 ?
RECQ1 inh: -6.4%; ALDH1A1 block: 3.1%; Lamin A splicing: inconclusive; Luc counter: -9.4%

Results for CCn1cc(C(=O)O)c(=O)c2ccc(C)nc21 ?
RECQ1 inh: -8.1%; ALDH1A1 block: -1.0%; Lamin A splicing: inconclusive; Luc counter: -3.8%

What do the screens show for `NC(=O)c1ncn(C2OC(CO)C(O)C2O)n1` (centres undefined)?
RECQ1 inh: 5.9%; ALDH1A1 block: -9.8%; Lamin A splicing: inconclusive; Luc counter: -1.7%

Results for CCOCN(C(=O)CCl)c1c(C)cccc1CC ?
RECQ1 inh: -13.4%&0.3%; ALDH1A1 block: 31.6µM*!; Lamin A splicing: -5.2%; Luc counter: -2.6%

Among those listed so far, these have sulfur.
How did S=C1NCCN1 do in these assays?
RECQ1 inh: -7.5%&-6.8%; ALDH1A1 block: 6.2%&6.4%; Lamin A splicing: 1.4%; Luc counter: 0.5%

What do the screens show for `NC(N)=NS(=O)(=O)c1ccc(N)cc1`?
RECQ1 inh: -14.7%; ALDH1A1 block: 5.5%; Lamin A splicing: inconclusive; Luc counter: -2.9%

Results for Cc1ccc(CNC2=NCCS2)cc1 ?
RECQ1 inh: inactive; ALDH1A1 block: 1.2%

Only part of the results is shown, so the mix of outcomes need not match the whole.
